Cruzain noTriton – inhibitors of Trypanosoma cruzi cruzain without detergent; purified cruzain, Z-FR-AMC fluorescence, no detergent; Potency, µM, for the others: max response, negative = inhibition, actives largely listed as inhibitors; 200,000 tested, 2.3% active;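 note: plate controls were enzyme without inhibitor for no effect and buffer without enzyme for full effect; nearly all actives have a fitted effect of over 40% in size; top concentration of the series not given in the record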
Target sequence (P25779 123-467 limits assumed): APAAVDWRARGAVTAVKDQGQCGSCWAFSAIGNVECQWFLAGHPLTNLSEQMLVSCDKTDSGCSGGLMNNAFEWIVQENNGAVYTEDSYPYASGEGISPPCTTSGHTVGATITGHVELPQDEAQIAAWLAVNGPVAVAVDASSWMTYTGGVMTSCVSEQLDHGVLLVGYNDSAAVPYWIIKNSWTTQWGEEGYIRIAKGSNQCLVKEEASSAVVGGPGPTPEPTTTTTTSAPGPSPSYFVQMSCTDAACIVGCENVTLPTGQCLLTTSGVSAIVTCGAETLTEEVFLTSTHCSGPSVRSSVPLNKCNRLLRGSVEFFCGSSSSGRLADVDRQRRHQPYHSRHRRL
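Purified cruzain at 1.5 nM, pre-incubated 15 min with compound at room temperature in 100 mM sodium acetate pH 5.5, 5 mM DTT, 0.00005% Triton X-100. Reaction started with 2 uM Z-FR-AMC; AMC fluorescence increase over 60 s gives rate.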
Lassa entry inh – inhibitors of Lassa virus binding or cell entry. Lassa virus pseudotype entry inhibition, cell reporter; control for the full effect not named in the record. Potency, µM (titrated, usually from 37.9 µM), without a hit: at the highest dose activity change, negative = inhibition, hits mostly inhibitors. 300,000 tested, 1.2% active. AID 540256; active means well fitted inhibition curve with a large enough effect; inconclusive means small, poorly fitted or top-dose-only effect, or effect the other way; inactive means flat fitted curve, though single readings scatter; tested in HEK293 cells; note: % is set by controls: 0 for no effect and ±100 for the full control effect; nearly all actives have a fitted effect of over 50% in size; luciferase read-out
StopGo reporter – FMDV 2A StopGo reporter, luciferase signal; 410,000 tested, 1.2% active; AID 1159524; human cells with a luciferase reporter of 2A StopGo recoding; control for the full effect not named in the record; Potency, µM (titrated, usually from 57.9 µM), for inactives: top-dose signal change, negative = less light; active = well fitted falling curve with a large enough effect; inconclusive = small, poorly fitted or top-dose-only effect; inactive = no such curve, though single readings can be large or run the other way; tested in HEK293T cells; note: % is set by controls: 0 for no effect and ±100 for the full control effect; nearly all actives have a fitted effect of over 45% in size; luciferase light after 4 h
Marburg entry inh – blocks Marburg virus binding to or entry into cells; Potency, µM (series often up to 37.8 µM), without a hit: top-dose activity change, negative = inhibition, hits mostly inhibitors; Marburg virus pseudotyped entry inhibition, cell reporter; control for the full effect not named in the record; about a third of the inactives were read at about 46 µM; AID 540276; 300,000 tested, 1.8% active; active = well fitted inhibition curve with a large enough effect; inconclusive = small, poorly fitted or top-dose-only effect, or effect the other way; inactive = flat fitted curve, though single readings scatter; tested in HEK293 cells; about a fifth of its hits are not listed in these tables; note: % is set by controls: 0 for no effect and ±100 for the full control effect; luciferase read-out
NS1 function inh – blocks influenza NS1 protein function; 270,000 tested, 0.4% active; Potency, µM (doses to about 46.1 µM), for inactives: top-dose activity, positive = more growth; S. cerevisiae slowed by influenza A NS1, growth recovery by OD600; active means well fitted rising curve with a large enough effect; inconclusive means small, poorly fitted or top-dose-only effect; inactive means no such curve, though single readings can be large or run the other way; note: nearly all actives have a fitted effect of over 50% in size
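A cell-based growth assay was used: compounds that relieve NS1-induced slow growth of budding yeast raise OD600. Assay medium was yeast nitrogen base with ammonium sulphate and -URA supplement, pH 6.0, with 2% galactose.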
SARS PLpro yeast – inhibitors of SARS-CoV papain-like protease in yeast | 330,000 tested, 0.19% active | AID 485353 | Potency, µM (top dose mostly 32.9 µM), for the others: top-dose activity, positive = growth rescue | S. cerevisiae expressing SARS-CoV PLpro, growth rescue; control for the full effect not named in the record; active means well fitted rising curve with a large enough effect; inconclusive means small, poorly fitted or top-dose-only effect; inactive means no such curve, though single readings can be large or run the other way; note: 0% is about no effect; nearly all actives have a fitted effect of over 55% in size; growth read by luminescence after 48 h
RE007 growth inh – less growth of the S. pombe RE007 Vpr strain; 360,000 tested, 0.21% active; Potency, µM (series often up to 92.2 µM), without a hit: at the highest dose activity change, negative = less growth; AID 651644; S. pombe RE007 Vpr strain, BacTiter-Glo ATP luminescence, 24 h; control for the full effect not named in the record; active = well fitted falling curve with a large enough effect; inconclusive = small, poorly fitted or top-dose-only effect; inactive = no such curve, though single readings can be large or run the other way;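 note: % is set by controls: 0 for no effect and ±100 for the full control effect; nearly all actives have a fitted effect of over 50% in size; the assay follows cell death caused by Vpr and the record does not say whether a fall means rescue or toxicity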
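Fission yeast strain RE007, carrying one chromosomally integrated HIV-1 vpr copy, was seeded at OD 0.01 in PMG+AL medium with 23 nL pinned compound. After 24 h at 30 °C and 99% humidity, viability was read by BacTiter-Glo luminescence.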
Cruzain Triton – blocks cruzain activity in presence of Triton detergent | 200,000 tested, 0.43% active | purified cruzain, Z-FR-AMC fluorescence, 0.01% Triton | P25779 | Potency, µM, for inactives: max response, negative = inhibition, usual class: inhibitors;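 note: plate controls were neutral wells for no effect and buffer without enzyme for full effect; nearly all actives have a fitted effect of over 40% in size; top concentration of the series not given in the record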
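Enzyme 1.5 nM, Z-FR-AMC 2 uM, NaOAc 100 mM pH 5.5, DTT 5 mM, Triton X-100 0.01%; 15 min RT compound preincubation; kinetic ex360/em450, 60 s delta.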
Numbers without * were called inactive; [ ] = another dose, or the depositor's remark. Unless noted, calls come from the whole dose curve; as a rule, active = well fitted curve in the direction sought with a large enough effect; inconclusive = small, poorly fitted or top-dose-only effect, or another doubt; inactive = no such curve, though single readings can be large; an effect the other way counts as inactive or inconclusive. Potency is the fitted concentration of half-maximal effect.

`CCc1ccc(CNC(=O)Cn2nc(C)n3c(cc4cc(C)ccc43)c2=O)cc1` gave Cruzain noTriton 9%, StopGo reporter -7%, Marburg entry inh -3%[46.1 µM] and Cruzain Triton -2.3%.
Screening CCCS(=O)(=O)N1CCC(C(=O)NCCCOC)CC1 returned Cruzain noTriton 14%, Lassa entry inh 11%, StopGo reporter 5%, Marburg entry inh 20%, NS1 function inh 6%, SARS PLpro yeast -2%, RE007 growth inh 6% and Cruzain Triton 0.6%.
`Cc1ccc(C(=O)NNC(=O)Cn2nnc3ccccc32)cc1` gave Lassa entry inh inconclusive, StopGo reporter 27%, Marburg entry inh 7%, NS1 function inh 0%, SARS PLpro yeast 0% and RE007 growth inh 4%.
`O=S(=O)(c1ccc(F)cc1)N1CC2CCCN2c2ccc(C(F)(F)F)cc21` (stereo unspecified) gave Cruzain noTriton -5%, Lassa entry inh 12%, StopGo reporter inconclusive, Marburg entry inh -27%, NS1 function inh 10%, SARS PLpro yeast -3%, RE007 growth inh -19% and Cruzain Triton -4.1%.
Screening C=CCn1c(SC)nc2sc3c(c2c1=O)CCc1ccccc1-3 returned Cruzain noTriton inconclusive, Lassa entry inh -3%, StopGo reporter -6%, Marburg entry inh -14%, NS1 function inh 9%, SARS PLpro yeast -2%, RE007 growth inh -12% and Cruzain Triton -5.7%.
`NC(=O)C1CCN(C(=O)/C=C/c2ccccc2[N+](=O)[O-])CC1` gave StopGo reporter 1%, NS1 function inh 3%, SARS PLpro yeast 1% and RE007 growth inh 15%.
CCOC(=O)C1=C(C)NC(=S)NC1c1ccc(C)s1 (stereo unspecified) was read as Lassa entry inh 10%[46.1 µM], StopGo reporter -12%, Marburg entry inh -16%[46.1 µM], NS1 function inh 2%, SARS PLpro yeast 0% and RE007 growth inh -7%.
`O=C(c1ccc(N2CCCS2(=O)=O)cc1)N1CCN(c2ccccc2)CC1` gave Lassa entry inh 1%[46.1 µM], StopGo reporter -5%, Marburg entry inh inconclusive, NS1 function inh -1%, SARS PLpro yeast -1% and RE007 growth inh 5%.
CCCCOCCCNC(=O)Cc1ccccc1OC was read as Cruzain noTriton 8%, Lassa entry inh 6%, Marburg entry inh 0%, NS1 function inh 2%, SARS PLpro yeast -2%, RE007 growth inh -2% and Cruzain Triton 1.2%.
For O=C(c1ccc(O)c(Br)c1)c1cc(Br)ccc1O the results were Lassa entry inh -12%[46.1 µM], StopGo reporter 0%, Marburg entry inh inconclusive and RE007 growth inh 63µM*.
For Clc1ccc(-c2cc(COc3ccc4ccccc4c3)no2)cc1 the results were Cruzain noTriton inconclusive, Lassa entry inh 7%, StopGo reporter -13%, Marburg entry inh 17%, NS1 function inh -4%, SARS PLpro yeast 9%, RE007 growth inh 8% and Cruzain Triton 4.1%.
COc1cc(C(=O)NCC(c2ccc(N(C)C)cc2)N2CCc3ccccc32)cc(OC)c1OC (stereo unspecified) was read as Cruzain noTriton inconclusive, Lassa entry inh -13%[46.1 µM], StopGo reporter -24% and Cruzain Triton -4.1%.
`Oc1ccc(Br)cc1CNc1cnc2ccccc2c1` gave StopGo reporter 30%[activator], NS1 function inh -6%, SARS PLpro yeast -10% and RE007 growth inh -14%.
`C/C=C/c1ccc(OCC(=O)Nc2cc(Cl)ccc2-n2cncn2)c(OC)c1` gave Lassa entry inh -2%[46.1 µM], StopGo reporter 16%, Marburg entry inh -2%, SARS PLpro yeast -9% and RE007 growth inh 10%.
Screening CSCC[C@H](NC(=O)OC(C)(C)C)C(=O)N/N=C/c1cccc2cccnc12 returned Lassa entry inh inconclusive, StopGo reporter -10%, Marburg entry inh inconclusive, NS1 function inh -1%, SARS PLpro yeast -1% and RE007 growth inh -1%.
For CC(NC(=O)c1cnc2ccccc2n1)c1ccccc1 (stereo unspecified) the results were Lassa entry inh 5%[46.1 µM], StopGo reporter 28%, Marburg entry inh inconclusive, NS1 function inh -3%, SARS PLpro yeast -2% and RE007 growth inh 11%.
`CCCc1cc(=O)oc2cc(OCc3cc(OC)c(OC)c(OC)c3)c(Cl)cc12` gave Cruzain noTriton -6%, Lassa entry inh 14%, StopGo reporter -22%, Marburg entry inh 5%, NS1 function inh 3%, SARS PLpro yeast 1%, RE007 growth inh 10% and Cruzain Triton 2.5%.
CCN(CC)c1ccc(NS(=O)(=O)c2ccc3c(c2)oc(=O)n3C)c(C)c1 was read as Cruzain noTriton -5%, StopGo reporter inconclusive, NS1 function inh -33%, SARS PLpro yeast -5%, RE007 growth inh -8% and Cruzain Triton 2.1%.
`Fc1ccc(Nc2nc3ccccc3s2)cc1` gave Lassa entry inh -11%, StopGo reporter 45%[activator], Marburg entry inh inconclusive, SARS PLpro yeast -2% and RE007 growth inh 6%.
Cc1ccccc1C(=O)NC1CCN(CC(=O)Nc2nccs2)CC1 was read as Cruzain noTriton -11%, Lassa entry inh 5%, StopGo reporter -4%, Marburg entry inh 14%, NS1 function inh -7%, SARS PLpro yeast -1%, RE007 growth inh 4% and Cruzain Triton 1.5%.
For N#Cc1c(-c2ccc(Cl)cc2)ccn2nc(C3CCCCC3)nc12 the results were Cruzain noTriton inconclusive, Lassa entry inh -1%, StopGo reporter 35%[activator], Marburg entry inh 16%, NS1 function inh 8%, SARS PLpro yeast -2%, RE007 growth inh 16% and Cruzain Triton -1.1%.
Screening Cc1cc(CN(C)C(=O)c2ccc3nc(Cc4ccccc4F)oc3c2)n[nH]1 returned Lassa entry inh -28%, StopGo reporter 11%, Marburg entry inh 11%, NS1 function inh 14%, SARS PLpro yeast -1% and RE007 growth inh 22%.
`CN(C)c1ccc(C=C2C(=O)NC(=O)NC2=O)cc1[N+](=O)[O-]` gave Lassa entry inh -4%, StopGo reporter -13%, Marburg entry inh 20%[46.1 µM], SARS PLpro yeast 8% and RE007 growth inh 18%.
`Cc1ccc(CCN2C(=O)CCC2(C)C(=O)NC2CCCC2)cc1` (stereo unspecified) gave Cruzain noTriton -6%, Lassa entry inh -13%, StopGo reporter -17%, Marburg entry inh 11%, NS1 function inh -21%, SARS PLpro yeast -12%, RE007 growth inh 0% and Cruzain Triton 1.4%.
Cc1c(Cl)cccc1NC(=O)CCCCCN1C(=O)CCC1=O was read as Cruzain noTriton 14%, Lassa entry inh -2%, StopGo reporter 14%, Marburg entry inh 7%, NS1 function inh -4%, SARS PLpro yeast 1%, RE007 growth inh 4% and Cruzain Triton -1.3%.
For Oc1ccc(Br)cc1/C=N/Nc1ccccn1 the results were StopGo reporter 21%, NS1 function inh -90%, SARS PLpro yeast -12% and RE007 growth inh inconclusive.
For COc1ccccc1CN(C)CC(=O)Nc1cccc(S(=O)(=O)N2CCCC2)c1 the results were Lassa entry inh inconclusive, StopGo reporter 0%, Marburg entry inh -24%, SARS PLpro yeast 3% and RE007 growth inh -1%.
Cc1cc(NC(=O)CSc2ncnc3sccc23)no1 was read as Lassa entry inh 13%[46.1 µM], StopGo reporter -3%, Marburg entry inh 1%[46.1 µM], SARS PLpro yeast 0% and RE007 growth inh 4%.
Screening CC(C)(C)c1cc(/C=C2\NC(=O)NC2=O)cc(C(C)(C)C)c1O returned StopGo reporter -9%, NS1 function inh 2%, SARS PLpro yeast 0% and RE007 growth inh -2%.
Screening CCOc1cccc2sc(NC(=O)CCS(=O)(=O)c3ccccc3)nc12 returned Lassa entry inh inconclusive, StopGo reporter -9%, Marburg entry inh 10µM*, NS1 function inh -7%, SARS PLpro yeast -4% and RE007 growth inh -15%.
`COc1cc(OC)cc(C(=O)NNC(=O)Cc2ccc(OC)c(S(=O)(=O)N3CCOCC3)c2)c1` gave Cruzain noTriton 7%, Lassa entry inh 1%, StopGo reporter -20%, Marburg entry inh 24%, NS1 function inh 5%, SARS PLpro yeast 13%, RE007 growth inh -4% and Cruzain Triton 4.7%.
CCS(=O)(=O)N1Cc2ccccc2CC1C(=O)Nc1nc2ccccc2s1 (stereo unspecified) was read as Cruzain noTriton inconclusive, Lassa entry inh inconclusive, StopGo reporter -42%, Marburg entry inh inconclusive, NS1 function inh 20%, SARS PLpro yeast 3%, RE007 growth inh -11% and Cruzain Triton -11%.
For CCOc1ccc2nc(NCCNC(=O)Nc3ccccc3)c(C#N)cc2c1 the results were Cruzain noTriton -1%, Lassa entry inh inconclusive, StopGo reporter -17%, Marburg entry inh -18%, NS1 function inh 6%, SARS PLpro yeast 8%, RE007 growth inh -3% and Cruzain Triton 0.6%.
Cc1ccc(NC(=S)NCc2cccn2C)cc1 was read as Cruzain noTriton -10%, Lassa entry inh 0%, StopGo reporter 6%, Marburg entry inh inconclusive, NS1 function inh 15%, SARS PLpro yeast inconclusive, RE007 growth inh 14% and Cruzain Triton -1.6%.
For CNC(=O)CSc1nnc(-c2ccccc2)n1C the results were StopGo reporter 251µM*, NS1 function inh 2%, SARS PLpro yeast 1% and RE007 growth inh -2%.
O=C(Cn1nc(-c2ccc(Cl)cc2)ccc1=O)NCCc1ccccc1 was read as Cruzain noTriton 4%, Lassa entry inh 4%[46.1 µM], StopGo reporter -2% and Cruzain Triton -0.2%.
For CCOC(=O)C1(C)Oc2ccc(S(=O)(=O)CC)cc2NC1=O (stereo unspecified) the results were Lassa entry inh -14%, StopGo reporter -9%, Marburg entry inh 24%[46.1 µM], NS1 function inh -2%, SARS PLpro yeast 1% and RE007 growth inh 6%.
Screening CC(O)(c1ccc(Cl)cc1)C(c1ccccc1)c1ccccn1 (stereo unspecified) returned Lassa entry inh 6%, StopGo reporter -29%, Marburg entry inh -10% and RE007 growth inh 4%.
`COc1ccc(N2CCN(S(=O)(=O)c3ccc4c(c3)C(C(C)C)C(=O)N4)CC2)cc1` (stereo unspecified) gave Cruzain noTriton -18%, Lassa entry inh 6%[46.1 µM], StopGo reporter inconclusive and Cruzain Triton -6.3%.
`COc1ccc(N(CC(=O)NC2CC3CCC2C3)S(=O)(=O)c2ccccc2)cc1OC` (stereo unspecified) gave Lassa entry inh 8.9µM*, StopGo reporter -12%, Marburg entry inh inconclusive, NS1 function inh -1%, SARS PLpro yeast -2% and RE007 growth inh -11%.
